Screening data: PubChem BioAssay, National Center for Advancing Translational Sciences (NCATS)
VDR inhibitor = blocks the human vitamin D receptor; P11473; VDR-SRC2-3 peptide fluorescence polarization, 2 h; Potency, µM, inactives show max response, negative = inhibition, hits mostly inhibitors; actives 0.93% (n = 400,000); AID 504847; active = well fitted inhibition curve with a large enough effect; inconclusive = small, poorly fitted or top-dose-only effect, or another doubt; inactive = no such curve, though single readings can be large or run the other way; note: series mostly up to about 120 µM
Target sequence (P11473 whole entry, looked up): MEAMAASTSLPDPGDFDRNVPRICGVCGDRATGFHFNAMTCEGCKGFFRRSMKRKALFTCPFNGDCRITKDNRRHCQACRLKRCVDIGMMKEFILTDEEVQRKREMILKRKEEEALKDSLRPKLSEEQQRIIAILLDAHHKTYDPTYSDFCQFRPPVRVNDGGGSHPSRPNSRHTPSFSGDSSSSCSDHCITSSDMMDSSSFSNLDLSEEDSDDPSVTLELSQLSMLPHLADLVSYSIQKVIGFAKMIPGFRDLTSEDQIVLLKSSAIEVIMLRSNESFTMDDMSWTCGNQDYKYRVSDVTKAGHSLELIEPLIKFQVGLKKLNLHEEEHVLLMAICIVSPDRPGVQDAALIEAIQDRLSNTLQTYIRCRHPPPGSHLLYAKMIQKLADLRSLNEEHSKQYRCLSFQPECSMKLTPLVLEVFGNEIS
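Measured by FP: displacement of SRC2-3 coactivator peptide from VDR by library compounds, following a two-hour ambient incubation.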
The depositor's hits bear a star; ? = inconclusive; & = joins results of further samples; [ ] = remark or other dose. % is set by controls: 0 for no effect and ±100 for the full control effect; potency is the fitted concentration of half-maximal effect. A portion of the library, so the mix of outcomes need not match the whole.

SMILES	VDR inhibitor
Cc1cc(C)cc(NC(=O)c2c(C)nc3ccccn23)c1	-8.8%
Cc1cccc(CNc2cc(-c3c(C)noc3C)ncn2)c1	-7.8%
CCN(CC)CCCNC(=O)c1csc(Nc2cccc3ccccc23)n1	-22.9%
CCCc1cc(C(=O)Nc2cccc(C(C)=O)c2)no1	2.7%
COC(=O)c1sc2nc(N)c(C#N)cc2c1N	7.0%
O=c1sc2ccccc2n1CCCOc1ccccc1	-5.5%
Cn1ccnc1C(O)c1ccc(OCc2ccccc2)cc1 (centres undefined)	21.3%
Cc1cccc(C)c1NC(=O)COC(=O)COc1ccc2c(C)cc(=O)oc2c1	-4.5%
O=C(Nc1ccc(N2CCOCC2)cc1)C1CCN(S(=O)(=O)Cc2ccccc2)CC1	-4.0%
CCCn1c2ccccc2c2cnn(CC(=O)NCCCN3C(C)CCCC3C)c(=O)c21 (centres undefined)	-9.1%
CCCCn1nnnc1SCC(=O)Nc1cccc(C)n1	-4.1%
CSCc1nnc(NC(=O)c2ccc(S(=O)(=O)N3CCCCC3C)cc2)o1 (centres undefined)	-3.6%
O=C(O)CCS(=O)(=O)c1cc(Br)cc2c1N(C(=O)C1CC1)CC2	-11.3%
Cn1c2c(c3ccccc31)CC/C2=N\O	-3.8%
CCn1c(C)cc(C(=O)COC(=O)c2cccnc2SC)c1C	-13.0%
Cc1cc(=O)n2[nH]c(-c3ccccc3)cc2n1	-1.4%
O=C(CSc1ncccc1C(=O)O)NCc1ccc(F)cc1	-6.2%
Cc1cc(NS(=O)(=O)Cc2ccccc2)no1	10.4%
CC1(C)Cc2ccccc2C(NNC(=O)c2ccccc2)=N1	10.0%
CCCCN(C)CCN1C(=O)C2C(C(=O)Nc3cccc(OC)c3)C3C=CC2(O3)C1C(=O)NC1CCCCC1C (centres undefined)	-1.0%

Retrieved by compound from the list above:
SMILES	VDR inhibitor
Cn1ccnc1C(O)c1ccc(OCc2ccccc2)cc1 (centres undefined)	21.3%
Cc1cccc(C)c1NC(=O)COC(=O)COc1ccc2c(C)cc(=O)oc2c1	-4.5%

More results.
SMILES	VDR inhibitor
O=C1Nc2ccccc2C1=Nc1cccc(Cl)c1	-15.6%
CC(CCc1ccc(O)cc1)NCc1ccc(Br)cc1 (centres undefined)	-15.1%
NCCCS(=O)(=O)O	-1.6%&-2.0%&-18.7%&13.1%
COC(=O)Cn1cc(C(=O)C(C)(C)C)c2ccccc21	-15.2%
O=C(O)c1ccc(S(=O)(=O)c2ccc3c(c2)C(=O)N(c2ccccc2[N+](=O)[O-])C3=O)cc1	-26.7%
COc1ccc(C(=O)Nc2cccc(C(=O)NCc3ccccc3)c2)cc1	-17.1%
CCn1nc(C(=O)NNC(=O)c2cc(Cl)ccc2OC)c2ccccc2c1=O	-8.8%
CCOCC(=O)Nc1ccc(S(=O)(=O)N2CCOCC2)cc1	4.2%
CCSC1(SCC)N=C(N)C2(C#N)C(c3ccccc3)NC(C)=CC12C#N (centres undefined)	11.4%
Cc1ccc(SCCNC(=S)Nc2ccccc2)cc1	3.3%
O=C(CCC1=NS(=O)(=O)c2ccccc2N1)NC1CCCCCCC1	32.8%
Cc1cc(C)n2nc(C(=O)OCC(=O)N(CC(C)C)C3CCS(=O)(=O)C3)nc2n1 (centres undefined)	9.6%
CCOc1ccc(CCNS(=O)(=O)c2cccc3nsnc23)cc1OCC	8.8%
CCc1ccc(-c2cc(C)no2)cc1S(=O)(=O)NCc1ccccc1OC	-10.1%
O=C(CNC(=O)c1ccccn1)N/N=C/c1ccccc1	-4.9%
CCOC(=O)N1CCN(Cc2nc(-c3cccs3)no2)CC1	4.6%
CCN1C(=O)c2ccc(C(=O)Nc3ncc(C)s3)cc2C1=O	-11.8%
Cc1cccc(NC(=S)NNC(=O)c2ccccc2Br)c1	-12.8%
COC(=O)c1sc(NC(=O)CSc2nc3nc(C)cc(C)n3n2)c(C(=O)OC)c1C	13.0%
Cc1ccc(NC(=O)c2ccc3nc(N4CCOCC4)sc3c2)c(Cl)c1	6.2%
O=C(O)c1cc(O)ccc1NC(=O)c1cccc2ccccc12	-9.1%
CN(C)c1nc(N)c(C(=O)N=C(N)N)nc1Cl	7.1%&4.6%
CC(C)N(Cc1nccn1C)C(=O)c1cc(COc2ccc(-n3cncn3)cc2)on1	8.1%
Nc1cc2nc3ccccc3oc-2cc1=O	?
COc1ccc(S(=O)(=O)N2CCCCCC2)cc1C(=O)N(C)CC(=O)Nc1ccccc1C(F)(F)F	-10.8%
CCN(CC)CCNC(=O)c1ccc(CS(=O)(=O)c2ccccc2C)o1	14.5%
CC(=O)c1cccc(NC(=O)c2ccccc2N(Cc2ccccc2)S(C)(=O)=O)c1	-6.0%
Cc1ccc(NNC(=O)c2c(F)cccc2Cl)cc1Cl	-9.0%
Cc1noc(C)c1CSCC(=O)Oc1ccc(N(C)S(=O)(=O)c2ccc(Cl)cc2)cc1	6.7%
O=C(Nc1cccc(S(=O)(=O)N2CCCCCC2)c1)c1ccc2c(c1)OCO2	-4.0%
Cc1cc(CNC(=O)CC2C(=O)NCCN2Cc2ccccc2C(F)(F)F)on1 (centres undefined)	-16.0%
Cc1cccc(-c2nc(SCC(=O)Nc3cc(C)on3)c3c(=O)n(C)c(=O)n(C)c3n2)c1	-0.7%
Cc1cc(C)cc(NC(=S)NCCCO)c1	2.1%
CCOc1ccccc1NC(=O)c1cccc(NC2=NC3CS(=O)(=O)CC3S2)c1 (centres undefined)	-11.0%
CC(C)c1ccc(NC(=O)c2ccc(CN3CC(=O)N4CCCCC4C3=O)cc2)cc1 (centres undefined)	8.0%
Cc1ccc(Cn2ccn(CC(=O)Nc3ccccc3C(F)(F)F)c(=O)c2=O)cc1	4.1%
Cc1cccc(C)c1-n1ncc(C(=O)NCc2ccc3c(c2)OCO3)c1C1CCN(C(=O)OC(C)(C)C)CC1	0.0%
COc1cc(C(=O)Nc2cc(C)nn2-c2ccccc2)cc(OC)c1OC	-1.4%
CCOC(=O)c1cccc(NC(=O)c2cccnc2)c1	-8.2%
O=c1[nH]c2ccccc2n2c(-c3ccccc3)nnc12	12.6µM*
CSCCC(NC(=O)c1ccccc1Cl)C(=O)Nc1ccncc1 (centres undefined)	-5.9%
COC(=O)[C@H](CCSC)NC(=O)Cn1ccc(NC(=O)OCc2ccccc2)nc1=O	2.3%
Cc1ccc(C(=O)NC2CC(C)(C)NC(C)(C)C2)cc1S(=O)(=O)N1CCCCC1	-0.2%
Cc1cccc(C2=NN(c3ccccc3)[C@H](CO)[C@H]2c2ccc(F)cc2)c1	-14.7%&-12.5%
COCCCC1CCN(C(=O)C2CCC(=O)N(CCc3ccccc3)C2)CC1 (centres undefined)	7.7%
COc1ccccc1NC(=O)C(=N\O)/C(C)=N/O	-15.5%
Cc1cccc(-c2noc(CN(C)C(=O)COc3ccccc3)n2)c1	14.0%
Fc1cccc(-c2cc3nc(-c4ccccc4)cc(N4CCC5(CC4)OCCO5)n3n2)c1	13.8%
Cc1c(NC(=O)C(C)N2CC(C)OC(C)C2)c(=O)n(-c2ccccc2)n1C (centres undefined)	13.7%
CC1=CC(=NOC(=O)/C=C/c2ccccc2)C=C(C)C1=O	?
C=CCn1c(=NC(=O)c2ccc(S(=O)(=O)N3CCc4ccccc4C3)cc2)sc2cc(S(N)(=O)=O)ccc21	-5.8%
CCOc1ccccc1NC(=O)CSc1nc2c(oc3ccccc32)c(=O)n1-c1ccc(F)cc1	3.9%
O=C(NC(=S)N1CCN(Cc2ccccc2)CC1)c1ccccc1	-19.7%
c1ccc2oc(Cc3ccc(Cc4nc5ccccc5o4)cc3)nc2c1	0.7%
COc1cccc(CNC(=O)CSc2nnc3c(n2)[nH]c2ccccc23)c1	-7.5%
CC(C)(O)c1ccccc1CC[C@@H](SCC1(CC(=O)O)CC1)c1cccc(/C=C/c2ccc3ccc(Cl)cc3n2)c1	?
O=[N+]([O-])c1ccc(OCC(O)CNC2CCCC2)cc1 (centres undefined)	-8.8%
COc1cccc(NC(=O)CCC(=O)N2Cc3ccccc3Oc3ncccc32)c1	20.1%
CC(C)Cn1c(CN2C(=O)c3ccccc3C2=O)nc2ccccc2c1=O	8.6%
CC(=O)c1ccc(NC(=O)C2(c3ccccc3)CC2(Cl)Cl)cc1 (centres undefined)	12.4%
Other entries.
SMILES	VDR inhibitor
Cc1cc(C)c(C)c(S(=O)(=O)NCCCn2ccnc2)c1C	2.9%
COc1ccc(/C=C/C(=O)OCC(=O)c2ccc3c(c2)NC(=O)CO3)cc1	7.5%
O=C(CSc1nnc(CCc2ccccc2)n1-c1ccc(Cl)cc1)c1ccccc1	-14.9%
CCN(CC)CCn1c(=S)[nH]c2ccc(Cl)cc2c1=O	18.6%
COc1ccc(OC)c(-c2cc(C(=O)N/N=C(\C)c3cccnc3)c3ccccc3n2)c1	5.1%
NC(=O)SCC(=O)Nc1ccc(Cl)c(Cl)c1	?
S=c1[nH]nc(-c2ccccc2)n1/N=C/C=C/c1ccco1	-26.5%
O=C(CSc1ncc(CO)n1Cc1ccc(F)cc1)NCc1ccco1	11.3%
COc1ccc(OC)c(/C=C2\SC(=S)N(N3CCOCC3)C2=O)c1	9.6%
COc1ccc(C(=O)N/N=C/c2ccc(OC)c(OS(=O)(=O)c3ccccc3)c2)cc1	-4.5%
Cc1onc(-c2c(F)cccc2Cl)c1C(=O)ONC(=O)c1ccco1	10.3%
O=C(COC(=O)COc1ccc(Cl)cc1)NC1CCCCCC1	18.5%
Cc1ccc2c(c1)-c1cc(C)ccc1C2=O	4.7%
CCc1cccc(NC(=O)CSc2nnc(-c3cc4occc4n3C)n2-c2ccccc2C)c1	8.8%
CCn1cc(C(=O)O)c(=O)c2cnc(N3CCN(C(=S)NC(=O)c4ccc(Br)cc4)CC3)nc21	3.9%
CCCCc1nc2ccccc2n2c(-c3ccc(OC)cc3)c3c(=O)n(C)c(=O)n(C)c3c12	-12.8%
CC1(C)NC(=O)N(Cc2cc(=O)n3ccsc3n2)C1=O	16.9%
Cc1ccc(N(CC(=O)NCc2ccccc2)C(=O)CCC(=O)Nc2ccccn2)c(C)c1	-8.3%
O=[N+]([O-])c1ccccc1/C=N/Nc1nccnc1Cl	-14.7%
CCOc1c(Cl)cc(CNCC(O)c2ccccc2)cc1OC (centres undefined)	5.1%
O=C(COc1ccc2ccc(=O)oc2c1)NC1CCN(Cc2ccccc2)CC1	-4.0%
CCc1ccc(Nc2nc(N)nc(CSc3nc4ccccc4s3)n2)cc1	4.3%&5.9%
COc1ccc(S(=O)(=O)N2C[C@H]3CON(C)[C@H]3C[C@H]2c2cccc(Br)c2)cc1	2.3%
COc1ccc(C(=O)NCc2nnc(SCC(=O)Nc3ccc4c(c3)OCO4)o2)cc1	-23.9%
CCCCCn1c(SCC2CCCO2)nc2cc(C(=O)N3CCC(C(N)=O)CC3)ccc2c1=O (centres undefined)	-0.1%
COc1ccc2cc(C=NS(=O)(=O)c3ccc(C)cc3)n(C)c2c1	2.1%
O=C1Nc2ccccc2/C1=C/C(=O)c1cccs1	?
CSc1sccc1/C=N/NC(=O)c1ccncc1	-7.2%
O=C(COc1cccc2ccccc12)NNC(=O)CSCCO	-3.2%
CCC(C)Sc1ccc([C@H]2N[C@@](Cc3ccccc3)(C(=O)OC)[C@H]3C(=O)N(CC)C(=O)[C@@H]23)cc1 (some centres undefined)	-7.8%
COc1cccc(-c2ccc3ncnc(NCCNC(C)=O)c3c2)c1	-8.0%
COc1ccc2c(c1)C(c1ccccc1OC)CC(=O)O2 (centres undefined)	?
N#Cc1nc(COc2cccc(Cl)c2)oc1NCCN1CCOCC1	-9.7%
CN(C)c1cc(-c2cccc(C(F)(F)F)c2)oc(=O)c1Cl	-13.8%
Cn1cnnc1Sc1nc2c(c(=O)n(C)c(=O)n2C)n1Cc1ccccc1Cl	-16.1%
COc1ccc(-c2csc3ncnc(N4CCN(Cc5ccccc5)CC4)c23)cc1	-9.7%
O=S(=O)(NC1CCCCC1Nc1ccc(Cl)cc1)c1ccccc1 (centres undefined)	10.6%
CCOc1ccccc1NC(=S)N1CCC(NC(=O)NC23CC4CC(CC(C4)C2)C3)CC1	6.2%
N#C/C(=C\c1cccnc1)C(=O)Nc1cccc2ccccc12	?
C[C@@H]1C[C@H]2[C@H]3C[C@@H](F)C4=CC(=O)C=C[C@]4(C)[C@@]3(Cl)[C@@H](O)C[C@@]2(C)[C@@H]1C(=O)COC(=O)C(C)(C)C	-0.9%
O=C1C2C3C=CC(CNS(=O)(=O)c4ccccc4[N+](=O)[O-])(O3)C2C(=O)N1c1ccccc1 (centres undefined)	-13.4%
CCOC(=O)c1cccc(NC(=O)c2cc3cc4ccc(C)cc4nc3o2)c1	-5.1%
O=C(c1ccco1)N1CCN(C(c2ccc(Cl)cc2)c2nnnn2CC2CCCO2)CC1 (centres undefined)	-7.3%
Cc1ccc(N2CC(C(=O)Nc3ccccc3C(=O)NC3CCCCC3)CC2=O)cc1 (centres undefined)	-11.3%
COc1cccc(NC(=O)CN2C(=O)CSc3nc(C)cc(C)c32)c1	16.7%
Cc1ccc(CNC(=O)C(=O)NCC(c2ccco2)S(=O)(=O)c2ccc(C)cc2)cc1 (centres undefined)	12.2%
Cc1cccn2c(=O)c(C=O)c(N3CCSCC3)nc12	4.3%
Nc1nc(NCC2CCC(CNS(=O)(=O)c3cccc4ccccc34)CC2)nc2ccccc12 (centres undefined)	118.5%[activator]

Arranged by SMILES length (lowest first): six of the compounds above
SMILES	VDR inhibitor
CSc1sccc1/C=N/NC(=O)c1ccncc1	-7.2%
CC1=CC(=NOC(=O)/C=C/c2ccccc2)C=C(C)C1=O	?
Cc1c(NC(=O)C(C)N2CC(C)OC(C)C2)c(=O)n(-c2ccccc2)n1C (centres undefined)	13.7%
CC(=O)c1cccc(NC(=O)c2ccccc2N(Cc2ccccc2)S(C)(=O)=O)c1	-6.0%
Nc1nc(NCC2CCC(CNS(=O)(=O)c3cccc4ccccc34)CC2)nc2ccccc12 (centres undefined)	118.5%[activator]
C=CCn1c(=NC(=O)c2ccc(S(=O)(=O)N3CCc4ccccc4C3)cc2)sc2cc(S(N)(=O)=O)ccc21	-5.8%
